Source: PubChem BioAssay (several laboratories)
UCH37 inh: inhibitors of human UCH37 deubiquitinase, primary screen, biochemical, Ub-AMC cleavage, fluorescence; inhibition, % (test concentration not listed); AID 588478, 2011; purified proteasome/UCH37; 330,000 compounds, 0.33% hits; Ubiquitin carboxyl-terminal hydrolase isozyme L5 (Homo sapiens), Q9Y5K5;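 active means mean of two replicates above 20%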;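 further: 0% = compound-free wells with enzyme and 100% = wells lacking proteasome; stock transfer was 100 nL into about 20 µL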
Target sequence (Q9Y5K5 whole entry, looked up): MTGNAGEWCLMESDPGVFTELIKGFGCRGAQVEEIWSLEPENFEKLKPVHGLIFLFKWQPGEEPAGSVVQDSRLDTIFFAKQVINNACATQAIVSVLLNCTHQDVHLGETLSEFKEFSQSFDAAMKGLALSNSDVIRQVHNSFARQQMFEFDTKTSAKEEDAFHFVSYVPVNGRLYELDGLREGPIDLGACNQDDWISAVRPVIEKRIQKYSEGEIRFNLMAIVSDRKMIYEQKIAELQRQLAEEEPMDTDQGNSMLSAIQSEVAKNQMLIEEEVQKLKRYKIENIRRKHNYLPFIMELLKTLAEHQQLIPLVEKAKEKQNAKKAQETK
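Material: human UCH37 enzyme supplied as purified proteasome complex / Amount: 0.15 nM proteasome as dispensed / Buffer or medium: pH 7.4 Tris-HCl (50 mM) with ovalbumin, ATP-MgCl2, DTT / Times: preincubation 30 min, reaction 25 min, room temperature / Technique: AMC fluorescence from Ub-AMC cleavage, excitation 355 nm, emission 460 nm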
HNF4A DNA FP: change in binding of human HNF4A to DNA, primary screen, biochemical, fluorescence polarization, FITC-DNA; Hepatocyte nuclear factor 4-alpha (Homo sapiens), P41235; 1 h; activity change, % at 10 µM; 360,000 compounds, 0.3% hits; AID 1224865, 2016; in the data active means activity change above about 30%, passing the limit was not always enough;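 further: controls were the assay level and a saturating level of protein; the project sought stronger binding though the title names inhibitors; some compounds called inactive have numbers as strong as hits; positive values seem to mean higher polarization but the record does not say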
Beta2AR agonist: beta2AR agonists driving receptor internalization, primary screen, cell-based, FAP fluorogen, flow cytometry. Am2.2-beta2AR cells; reference of the scale not given here. response, % (concentration not given with the values). 340,000 compounds, 0.43% hits;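 active means response above a set limit, near 3 SD of response in nonfluorescent compounds, cut at about 42% in these data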;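 further: stock transfer was 100 nL into about 11 µL; a reference agonist was the positive control; negative values mostly stem from fluorescent compounds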
FGF22 binding: binders of human FGF22 protein, primary screen, FGF22 synaptogenesis inhibitor project, biophysical, thermal shift, single point; recombinant FGF22 thermal shift, SYPRO orange fluorescence; percent of sucrose octasulfate shift, DMSO zero; calls only at 9.99 µM; 340,000 compounds, 1.5% hits; AID 651658, 2012;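 active means melting point raised past a set limit in the mean and every replicate; three in four hits are not shown here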
Target sequence (Q9HCT0 whole entry, looked up): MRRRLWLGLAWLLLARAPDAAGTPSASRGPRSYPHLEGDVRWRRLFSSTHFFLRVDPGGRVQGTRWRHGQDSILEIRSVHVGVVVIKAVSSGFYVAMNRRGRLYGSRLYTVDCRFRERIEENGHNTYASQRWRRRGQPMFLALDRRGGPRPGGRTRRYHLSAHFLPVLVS
Ecoli growth: E. coli growth inhibition, primary screen, OD600; 330,000 compounds, 0.21% hits; OD600 absorbance (concentration not given with the values); Escherichia coli growth, 23 h; hits give low values;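 active means OD600 absorbance below the run mean of sample wells minus 3.6 SD, in any replicate, cut at about 0.56 in these data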;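 further: stock transfer was 300 nL into about 60 µL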
ALR inh: inhibitors of human ALR sulfhydryl oxidase, primary screen, biochemical, H2O2 detection, HRP-luminol luminescence, single point; FAD-linked sulfhydryl oxidase ALR (Homo sapiens), P55789; AID 485317, 2010; inhibition, % (concentration not given with the values); 290,000 compounds, 3.8% hits; purified ALR, DTT oxidation;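 active means mean and each replicate at 75% or more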;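 further: stock transfer was 7.5 nL into about 7.5 µL; 0% = neutral wells and 100% = wells with inactivated enzyme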
Target sequence (P55789 whole entry, looked up): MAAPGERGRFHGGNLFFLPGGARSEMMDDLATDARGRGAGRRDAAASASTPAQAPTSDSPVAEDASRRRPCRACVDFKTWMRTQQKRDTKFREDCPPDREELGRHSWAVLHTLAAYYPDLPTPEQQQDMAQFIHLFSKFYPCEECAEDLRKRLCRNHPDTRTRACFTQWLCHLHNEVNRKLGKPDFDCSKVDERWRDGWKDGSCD
rRNA inh HTS: reduced GFP signal of wild-type E. coli, primary screen, bacterial rRNA inhibitor project, GFP/RFP fluorescence, OD600, single point; E. coli WT GFP vs humanized-ribosome RFP mutants, 24 h; hits give low values; DMSO median 0, no signal -100; GFP signal change (wild-type ribosome), % (no concentration beside the values); 350,000 compounds, 1.6% hits; AID 720706, 2013;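 active means significant combined selectivity score with lowered wild-type GFP, culture density cut under 30%, mutant RFP and density less affected; inactive means any of these conditions unmet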; further: one replicate is shown; some compounds called inactive have numbers as strong as hits
rRNA inh HTS OD600: also measured in rRNA inh HTS; calls as there; OD600 change, %; measured here: OD600 growth;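 optical density of the mix in the first replicate; 0 = DMSO median and -100 = no signal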
rRNA inh HTS RFP: recorded beside rRNA inh HTS, whose call it bears; RFP signal change, %; measured here: RFP humanized mutant strains;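 first replicate; 0 = DMSO median and -100 = no signal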
* hit, by the source's call; i = inactive; nt = no result given. These rows are one share of the data. The share of hits here may be higher or lower than overall.

Start of the data: the first 7 records, to show the layout:
SMILES	UCH37 inh	HNF4A DNA FP	Beta2AR agonist	FGF22 binding	Ecoli growth	ALR inh	rRNA inh HTS	rRNA inh HTS OD600	rRNA inh HTS RFP
CC(=O)NC(CC(=O)NCCOc1ccccc1F)c1ccccc1 (configuration not stated)	2.3	-0.2	-5.0	i	0.723	-1.9	4.3	4.5	-0.4
CCOC(=O)c1[nH]c2ccc(Cl)cc2c1NC(=O)c1nonc1C	-3.7	-4.1	-0.9	nt	0.662	-29.0	nt	nt	nt
COCCn1c(SCC(=O)N2CCCCCC2)nc2c([nH]c3ccccc32)c1=O	-9.1	1.9	-1.1	i	0.697	-4.2	2.4	2.4	-1.1
COc1ccc(N2CC(C(=O)Nc3c4c(nn3-c3ccccc3)CS(=O)(=O)C4)CC2=O)cc1 (configuration not stated)	-0.3	4.0	-4.0	i	0.714	-26.8	8.6	7.1	2.1
CCOc1cc(/C=N/NC(=O)c2cc(-c3cccc(OC)c3)nc3ccccc23)ccc1O	nt	0.1	10.2	i	nt	18.2	10.8	17.8	0.8
CC/C(=N\NC(=S)Nc1cccc(C)c1)c1ccccc1	nt	-2.1	-7.1	i	nt	-6.0	-5.6	-1.9	-5.0
Cc1c(Cl)cnc(NC(=O)COC(=O)CNC(=O)c2ccccc2)c1Cl	1.7	-2.6	7.2	i	0.714	-4.5	2.1	7.1	3.0

The listing, from the first entry:
SMILES	UCH37 inh	HNF4A DNA FP	Beta2AR agonist	FGF22 binding	Ecoli growth	ALR inh	rRNA inh HTS	rRNA inh HTS OD600	rRNA inh HTS RFP
CC(=O)NC(CC(=O)NCCOc1ccccc1F)c1ccccc1 (configuration not stated)	2.3	-0.2	-5.0	i	0.723	-1.9	4.3	4.5	-0.4
CCOC(=O)c1[nH]c2ccc(Cl)cc2c1NC(=O)c1nonc1C	-3.7	-4.1	-0.9	nt	0.662	-29.0	nt	nt	nt
COCCn1c(SCC(=O)N2CCCCCC2)nc2c([nH]c3ccccc32)c1=O	-9.1	1.9	-1.1	i	0.697	-4.2	2.4	2.4	-1.1
COc1ccc(N2CC(C(=O)Nc3c4c(nn3-c3ccccc3)CS(=O)(=O)C4)CC2=O)cc1 (configuration not stated)	-0.3	4.0	-4.0	i	0.714	-26.8	8.6	7.1	2.1
CCOc1cc(/C=N/NC(=O)c2cc(-c3cccc(OC)c3)nc3ccccc23)ccc1O	nt	0.1	10.2	i	nt	18.2	10.8	17.8	0.8
CC/C(=N\NC(=S)Nc1cccc(C)c1)c1ccccc1	nt	-2.1	-7.1	i	nt	-6.0	-5.6	-1.9	-5.0
Cc1c(Cl)cnc(NC(=O)COC(=O)CNC(=O)c2ccccc2)c1Cl	1.7	-2.6	7.2	i	0.714	-4.5	2.1	7.1	3.0
CSc1c2c(nc3ncnn13)CCC2	-15.2	0.2	0.1	nt	0.693	12.8	nt	nt	nt
CCN(CC)S(=O)(=O)c1cc(NC(=O)Cc2n[nH]c(=O)c3ccccc23)ccc1C	0.5	1.1	-2.4	i	0.682	-18.7	-20.3	-17.4	-3.5
CCNC(=O)N1CCNC(=O)C1CC(=O)Nc1ccc(C(=O)OCC)cc1 (configuration not stated)	4.0	2.9	-5.1	nt	0.776	nt	nt	nt	nt
CCCCNc1c(-c2cccc(-c3ccc(OC)cc3)c2)nc2cc(C)ccn12	-88.7	3.5	25.5	i	0.751	10.9	-12.8	-1.9	-14.2
C=CCN1C(=NC(=O)COc2ccc(Cl)cc2)SC2CS(=O)(=O)CC21 (configuration not stated)	1.4	-3.7	-5.1	i	0.654	-1.3	2.6	16.2	-2.6
COc1ccc(-c2ccc3nnc(SCC(=O)NCC4CCCO4)n3n2)cc1 (configuration not stated)	-95.9	1.1	-4.3	i	0.673	-0.3	-3.5	3.4	-0.8
COC(=O)c1cc(Cl)c(NC(=O)/C=C/c2ccc(OC)cc2)cc1OC	-379.3	-1.1	5.0	i	0.729	nt	-1.6	-2.0	-9.7
O=C(c1ccccc1)N1CCN=C1SCc1ccc([N+](=O)[O-])cc1	4.3	-1.7	-5.4	nt	0.664	98.7*	nt	nt	nt
COc1cc(OC)cc(C(=O)NCc2cccnc2)c1	3.7	-3.2	-3.4	nt	0.775	nt	nt	nt	nt
Cc1onc(C(=O)NCc2ccccn2)c1[N+](=O)[O-]	-0.1	-5.4	0.8	i	0.71	1.9	4.1	-3.8	-0.8
CCCCn1c(C)nc2c(=O)n(C)c(=O)[nH]c21	1.2	-0.2	-1.0	nt	0.735	-1.7	nt	nt	nt
O=C(CSc1nc(-c2ccccc2)ns1)N1CCOCC1	-0.3	5.8	-14.7	i	0.689	-13.6	0.3	-3.2	-4.6
Cc1cc(OCc2ccc(C(=O)Nc3ccc(C(=O)O)cc3)o2)ccc1Cl	-0.1	-3.1	19.2	i	0.707	-1.1	-0.8	7.7	2.5
NC(=O)Cn1nc([N+](=O)[O-])nc1Oc1ccccc1F	2.8	-2.8	-14.4	i	0.684	-42.4	1.2	5.5	-2.7
Cc1ccccc1C(=O)NC(CC(C)C)C(=O)Nc1ccc(S(N)(=O)=O)cc1 (configuration not stated)	-2.0	0.8	0.7	i	0.654	-13.2	-24.1*	-18.1*	-4.9*
O=C(Nc1oc2ccc(Cl)cc2c(=O)c1-c1ccc(F)cc1)c1ccco1	8.2	-3.6	3.3	i	0.677	0.0	3.1	5.8	-0.5
C=CCN1C=C/C(=C\C=C(C#N)C#N)c2ccccc21	6.7	94.4*	-10.5	i	0.676	nt	-15.2	-16.3	73.8
Cc1cccc(N2CCN(S(=O)(=O)c3cn(C)cn3)CC2)c1C	0.0	-0.4	12.0	i	0.672	-1.7	7.2	-4.4	1.4
CCN1CCN(c2nc(Nc3ccc(C)c(C)c3)nc(N)c2[N+](=O)[O-])CC1	2.0	-1.0	17.0	nt	0.652	-0.4	nt	nt	nt
Cc1cc[n+](Cc2ccccc2)c(N)c1	3.6	3.6	-2.9	nt	0.674	nt	nt	nt	nt
CCC(CO)NCc1sccc1C (configuration not stated)	-0.8	-2.5	-6.7	i	0.664	nt	7.7	10.4	1.1
CC1=C(C(=O)N(C(C)C)C(C)C)CC(CC(=O)NCc2ccco2)C(=O)N1Cc1ccc(F)cc1 (configuration not stated)	nt	-3.2	nt	i	nt	nt	-1.5	3.9	-1.7
Cc1ccccc1NC(=O)c1cccc(OCc2c(C)noc2C)c1	4.3	-0.2	-1.1	nt	0.734	-2.8	nt	nt	nt
CN(C)CCCNC(=O)C(=O)Nc1cc2c3c(c1)CC(=O)N3CCC2	5.6	4.7	5.9	i	0.698	-22.7	6.3	14.7	-0.2
Cc1ccc2nc3n(c(=O)c2c1)CCCCC3	7.2	-1.5	-4.8	nt	0.685	-4.1	nt	nt	nt
O=C(c1ccco1)N1CCN(Cc2nnc(-c3cccc(Cl)c3)o2)CC1	-2.9	-0.1	2.6	i	0.673	-10.0	0.2	-4.6	0.7
COc1ccccc1OC(C)C(=O)Nc1nc(-c2ccc(S(=O)(=O)N3CCOCC3)cc2)cs1 (configuration not stated)	2.4	2.9	0.4	nt	0.688	-11.3	nt	nt	nt
O=C(NCc1ccccc1)c1cc(C2CCCN(C(=O)c3cccs3)C2)on1 (configuration not stated)	nt	0.8	nt	i	nt	nt	2.3	-8.5	0.3
CCc1ccc(CN(C(=O)c2ccco2)C2CCS(=O)(=O)C2)cc1 (configuration not stated)	2.3	2.0	8.2	i	0.634	-0.5	-0.1	7.7	-1.8
CCCCN(Cc1cc2cc(OC)ccc2[nH]c1=O)C(=O)c1ccco1	-41.9	0.1	1.9	nt	0.742	-16.3	nt	nt	nt
CCc1ccc(-n2c(=O)c3ccccc3n(CC(=O)C(C)(C)C)c2=O)cc1	3.9	-0.8	-2.3	i	0.706	-0.8	3.8	-4.2	-2.8
COc1cc2c(cc1OC)C(C)N(S(=O)(=O)c1cnc(Cl)c(Cl)c1)CC2 (configuration not stated)	0.9	-4.7	19.8	nt	0.712	2.3	nt	nt	nt
CCCc1cc(CNC(=O)C2CCC(=O)N(CCc3cccc(F)c3)C2)on1 (configuration not stated)	3.8	-4.5	-7.5	i	0.687	-3.5	4.1	-0.9	1.3
CC1=C(C(N)=O)C(c2cccnc2)n2nc(SCc3ccccc3Cl)nc2N1 (configuration not stated)	4.8	-4.1	28.6	nt	0.724	-25.4	nt	nt	nt
COc1cc(/C=C/C(=O)NCc2ccccn2)cc(OC)c1OC	-16.4	-2.3	-3.7	i	0.699	-0.2	4.8	-6.7	1.3
Nc1cccc2[nH]c(C(F)(F)F)nc12	2.0	4.6	0.3	i	0.717	nt	4.2	13.9	21.3
CCOC(=O)c1c(C)[nH]c(C)c1S(=O)(=O)N1CCN(c2ccc([N+](=O)[O-])cc2)CC1	5.4	0.5	18.2	i	0.718	-4.8	3.9	7.9	0.2
CN(c1ccccc1)S(=O)(=O)c1ccc(Cl)c(C(=O)Nc2nc3ccccc3[nH]2)c1	-3.9	-1.4	9.0	nt	0.68	-3.6	nt	nt	nt
CCCCN(C)S(=O)(=O)c1ccc(C(=O)Nc2nnc(-c3cccs3)o2)cc1	7.6	nt	nt	nt	0.728	3.3	nt	nt	nt
CN(C)c1nc(Nc2ccccc2)nc(Oc2ccc(=O)[nH]n2)n1	1.2	-0.8	-11.6	nt	0.699	nt	nt	nt	nt
CCOc1c(Br)cc(Br)cc1/C=C1\SC(N)=NC1=O	-8.6	5.8	2.4	i	0.641	-10.0	-2.7	4.3	-4.0
COc1cc(CNCc2cccnc2)ccc1OCC(=O)NC1CCCCC1	1.8	0.3	-7.0	i	0.722	nt	7.4	14.9	1.8
